# Bioassay records: PubChem BioAssay, National Center for Advancing Translational Sciences (NCATS)
# A488 autofl: qHTS Assay for Spectroscopic Profiling in A488 Spectral Region. max dye equivalency, M. AID 591, 2007. 59,000 compounds, 0.1% hits. compound autofluorescence, A488 spectral region, dye equivalency; hits give high values; active = above 10 nM dye equivalent; inconclusive = 1 to 10 nM; inactive = 1 nM or less; about half of its hits are not listed in these tables;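 note: highest value over a series up to 38 µM; compound alone in buffer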
#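 Spectroscopic profiling in the A488 region: compounds in pH 8.0 Tris (100 mM), 15 min RT, CCD imaging with 480 nm excitation and 540 nm emission; responses normalized against A488 dye standards.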
# TSHR ag: qHTS Assay for Agonists of the Thyroid Stimulating Hormone Receptor; 73,000 compounds, 0.48% hits; HEK293-CNG-TSHR cells (CNG channel as cAMP sensor), membrane potential dye, cAMP; Potency, µM (series often up to 57.1 µM), inactives show at the highest dose activation, most hits filed as activators; active = well fitted activation curve of enough size with the parental cells flat; inconclusive = any curve in the parental cells; inactive = parental cells flat and receptor cells flat or falling; note: potency is the fitted concentration of half-maximal effect; % of control where 0% means no effect; weak receptor curves with flat parental cells got no call and are not listed
# Target sequence (P16473 whole entry, looked up): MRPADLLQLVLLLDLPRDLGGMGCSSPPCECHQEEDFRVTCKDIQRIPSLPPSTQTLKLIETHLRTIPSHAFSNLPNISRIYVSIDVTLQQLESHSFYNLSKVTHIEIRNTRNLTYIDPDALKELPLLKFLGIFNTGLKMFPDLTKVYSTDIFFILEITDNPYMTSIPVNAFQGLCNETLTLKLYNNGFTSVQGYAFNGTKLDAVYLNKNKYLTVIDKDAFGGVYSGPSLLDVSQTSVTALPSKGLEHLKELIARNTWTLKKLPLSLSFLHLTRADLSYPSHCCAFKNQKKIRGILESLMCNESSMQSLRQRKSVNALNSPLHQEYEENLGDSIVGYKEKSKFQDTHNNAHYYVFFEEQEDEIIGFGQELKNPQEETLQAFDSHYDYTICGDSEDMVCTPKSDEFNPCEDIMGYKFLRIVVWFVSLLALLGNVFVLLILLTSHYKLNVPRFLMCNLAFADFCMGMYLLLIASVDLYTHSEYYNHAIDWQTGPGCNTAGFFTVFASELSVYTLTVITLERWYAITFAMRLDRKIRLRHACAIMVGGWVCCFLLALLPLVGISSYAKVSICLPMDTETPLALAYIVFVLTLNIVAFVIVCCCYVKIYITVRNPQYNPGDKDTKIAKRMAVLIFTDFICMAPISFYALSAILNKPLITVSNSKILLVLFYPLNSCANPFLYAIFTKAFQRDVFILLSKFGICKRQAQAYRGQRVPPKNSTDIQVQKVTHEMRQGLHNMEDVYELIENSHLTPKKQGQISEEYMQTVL
#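 HEK 293 cells stably expressing TSHR and a cAMP-gated CNG channel; parental CNG-only cells as counterscreen. Cells preloaded 60 min with membrane potential dye plus 100 uM RO 20-1724, then compound 30 min; fluorescence read at 590 nm.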
# AID923: qHTS Assay for Allosteric/Competitive Inhibitors of Caspase-1: Spectroscopic Profiling in AFC Spectral Region; compound fluorescence, AFC spectral region (405/520 nm); almost no hit is shown here; 75,000 compounds, 1.1% hits; Potency, µM (top dose mostly 57.5 µM), for the others: at the top dose fluorescence increase, hits mostly activators; AID 923, 2007; active = well fitted activation curve with a large enough effect; inconclusive = small, poorly fitted or top-dose-only effect;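 note: potency is the fitted concentration of half-maximal effect; 0% is about no effect; scaled to a free AFC standard on each plate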
#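 Baseline compound fluorescence (AFC region, 405 nm ex/520 nm em) taken from the intercept of kinetic reads with 50 nM caspase-1 and 5 uM Ac-WEHD-AFC; normalized to an on-plate AFC standard curve; compounds titrated up to 57 uM.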
# Resorufin autofl: qHTS Assay for Spectroscopic Profiling in Resorufin Spectral Region; max dye-equivalent concentration, M; Compound fluorescence, resorufin region 547/598 nm, buffer; hits give high values; 59,000 compounds, 0.04% hits; AID 588, 2007; active = above 10 nM dye equivalent; inconclusive = 1 to 10 nM; inactive = 1 nM or less; a few of its hits are not listed in these tables; note: highest value over a series up to 38 µM
#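 Compounds in 100 mM Tris, pH 8.0, incubated 15 min at room temperature, then fluorescence read at 547 nm excitation/598 nm emission. Signal converted to dye-equivalent concentration via an on-plate six-point resorufin standard curve, per compound concentration.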
# A647 fluor: qHTS Assay for Spectroscopic Profiling in A647 Spectral Region | AID 592, 2007 | max dye-equivalent concentration, M | 59,000 tested, under 10 active | Compound fluorescence, A647 channel (570/671 nm), Tris buffer; active means above 1 µM dye equivalent; inconclusive means 0.1 to 1 µM; inactive means 0.1 µM or less;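 note: values scaled relative to a standard on each plate; highest value over a series up to 38 µM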
#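 Tris 100 mM pH 8.0; cpd + A647 stds pin-transferred; 15 min RT; CCD imager, ex 570/em 671. Output = A647-equivalent conc. per cpd conc.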
# The depositor's hits bear a star; i = inactive; ? = inconclusive; / = not tested or not shown; [ ] = another dose, or the depositor's remark. Not all compounds are listed; rates above refer to the full screens.
SMILES,A488 autofl,TSHR ag,AID923,Resorufin autofl,A647 fluor
CCC(=O)Nc1ccc2oc(-c3cccc(C)c3)nc2c1,i,-6.4%,1.3%,i,3.7e-09
CCc1nn(C(C)C(=O)NCCc2ccc(OC)c(OC)c2)c(=O)c2cc3occc3n12 (configuration not stated),/,6.5%,1.1%,/,/
O=C(c1cc(S(=O)(=O)N2CCOCC2)c(Cl)cc1Cl)N1CCCCC1,i,8.5%,0.0%,i,1.47e-08
COc1cc(N=Nc2cccc(S(N)(=O)=O)c2)c2ccccc2c1N,i,-5.7%[11.4 µM],-1.8%[11.5 µM],i,1e-09
Cc1cc(C)nc(N2CCC(C(=O)NCc3cccs3)CC2)n1,i,-1.0%,0.5%,i,2.86e-08
CSc1nnc(Cc2cc(=O)[nH]c(=O)[nH]2)n1-c1cc(C)ccc1C,i,?,-0.4%,i,3.93e-08
O=C(NCCF)[C@H]1C[C@@H]1[C@H](NP(=O)(c1ccccc1)c1ccccc1)c1ccccc1,/,15.0%,-0.6%,/,/
COC(=O)c1ccc(NC(=O)CN2CCN(c3cccc(Cl)c3)CC2)cc1,i,?,-2.2%,i,1.27e-08
CCOC(=O)C1(c2nc(N)cs2)COC(=O)C1 (configuration not stated),i,/,/,i,1.61e-08
CCOC(=O)CN(C(=O)c1ccccc1)c1ccccc1C,/,9.9%,-0.6%,/,/
CCOC(=O)CNC(=O)CSc1nnc(-c2ccccc2)n1Cc1ccco1,i,28.7%,-1.2%,i,3.8e-09
c1ccc2c(Cn3nnc4ccccc43)cccc2c1,i,/,0.5%,i,4.04e-08
CC1Cc2ccccc2N1C(=O)CSc1nc2c(c(=O)n(C)c(=O)n2C)n1Cc1ccccc1 (configuration not stated),i,?,3.5%,i,3.05e-08
Cc1ccc(-c2cn3cccnc3n2)cc1NC(=O)c1c(-c2ccccc2Cl)noc1C,i,20.1%,1.4%,i,2.69e-08
CCOC(=O)C1CCN(CC(O)COc2ccc(C(C)(C)C)cc2)CC1 (configuration not stated),i,8.2%,0.1%,i,1e-09
CCCCOC(=O)C1C2C=C[C@]3(CN(CCCOC)C(=O)[C@H]13)O2 (some centres not stated),i,24.3%,-2.4%,i,1e-09
O=S(=O)(c1ccc(Oc2ccc(Br)cc2)cc1)N1CCOCC1,i,?,0.3%,i,1e-09
O=S(=O)(c1ccccc1)N1CCC2(CCCN(c3ncccn3)C2)CC1,i,?,1.7%,i,4.4e-09
O=[N+]([O-])c1cccc(/C=N\NC2=CS(=O)(=O)C=C2)c1,i,5.3%[11.4 µM],1.9%[11.5 µM],i,2.2e-09
CCN(CC)CCCN1C(=O)C(O)=C(C(=O)c2ccco2)C1c1ccc(OC(C)C)cc1 (configuration not stated),i,5.0%,1.9%,i,7.7e-09
CCOC(=O)N1CCN(C(=O)CCSc2ccc(C)cc2)CC1,i,14.7%,-1.8%,i,5.3e-09
CC1CCCCN1C(=O)CSc1nc(-c2ccccc2)cc(=O)[nH]1 (configuration not stated),i,9.4%,-0.5%,i,3e-09
Cn1c(SCc2ccccn2)nnc1-c1cnccn1,i,-3.1%,2.4%,i,1e-09
O=C(CCNS(=O)(=O)c1ccc(Cl)cc1)NCc1cccnc1,i,-0.1%,0.2%,i,1.1e-09
COc1nc(OC)nc(N2CCC(C(=O)Nc3cccc4c3CCCC4)CC2)n1,i,6.1%,1.3%,i,1e-09
O=C(c1csc2c1CCCC2)N1CCN(c2ncccn2)CC1,i,14.8%,1.2%,i,2.1e-09
CC(C)NC(=O)CCS(=O)(=O)c1ccc(Br)s1,i,0.2%,-0.3%,i,1.3e-09
C/C(=C\C1CCCCC1)C(NC(=O)c1cccnc1)c1ccc(-c2ccccc2)cc1 (configuration not stated),/,18.4%,3.5%,/,/
CCOc1ccc(OCC)c(NC(=O)CN2CCN(c3cc(C)ccc3C)CC2)c1,i,/,-1.9%,i,1.08e-08
CCN(CC)C(=O)C1CCN(CC2CC=CCC2)CC1 (configuration not stated),i,-1.5%,-0.1%,i,5.8e-09
CN(C)c1nc(Oc2ccc(C(=O)OCC(=O)Nc3ccccc3)cc2)nc(N(C)C)n1,/,?,0.7%,/,/
COc1ccc(OC)c(C2C(C(=O)c3ccco3)=C(O)C(=O)N2CCCN2CCOCC2)c1 (configuration not stated),i,/,/,i,1.1e-09
COC(=O)c1cc(Br)c(=O)n(-c2ccc(OC)cc2)c1,i,-1.6%,-0.1%,i,1e-09
O=C(CSc1nnc(-c2ccc(Cl)s2)o1)N1CCOCC1,i,-4.9%,-1.6%,i,1e-09
CCn1c(SCCN2CCCCC2)nnc1-c1ccc(S(=O)(=O)N2CCOCC2)cc1,i,1.2%,0.4%,i,1e-08
Cc1nn(-c2cc(Cl)ccc2N)c(=O)c2ccccc12,/,-5.4%,0.2%,/,/
CCOC(=O)CN1C(=O)SC(CC(=O)Nc2nccs2)C1=O (configuration not stated),i,-0.1%,3.5%,i,1.5e-09
CSc1ccccc1NC(=O)CN(Cc1ccc(Cl)cc1)S(C)(=O)=O,i,20.4%,-1.0%,i,5.6e-09
CCN(CC)S(=O)(=O)c1ccc(S(=O)(=O)N(Cc2ccccn2)Cc2ccco2)cc1,i,14.5%,1.2%,i,6.05e-08
CC(C)NCC(O)COc1cccc2[nH]ccc12 (configuration not stated),i,/,-2.3%,i,1e-09
Cc1cc(Br)ccc1NC(=O)CNC(=O)CN(C)Cc1nc2ccccc2c(=O)[nH]1,i,?,3.9%,i,3.68e-08
COC(=O)Nc1nc(C)c(C(=O)N(C)C)s1,i,-1.2%,3.5%,i,2.2e-09
c1ccc(Cn2nnnc2C(c2ccccn2)N2CCOCC2)cc1 (configuration not stated),i,6.7%,1.2%,i,1.45e-08
CC1CC(C)CN(C(=O)COC(=O)CNS(=O)(=O)/C=C/c2ccccc2)C1 (configuration not stated),i,5.3%,0.1%,i,7.3e-09
O=C(CSc1nnc(-c2cccs2)n1Cc1ccco1)c1ccc2c(c1)OCO2,i,?,1.2%,i,3.23e-08
Cc1ccc(C2C(C(=O)c3cc4ccccc4o3)=C(O)C(=O)N2CCN(C)C)o1 (configuration not stated),i,/,/,i,1e-09
CCCC(=O)N1c2ccc(-c3csc(N)n3)cc2CC1C (configuration not stated),i,-4.1%,2.0%,i,1e-09
Cc1ccc(S(=O)(=O)N(CC(=O)O)Cc2cccc(C)c2)cc1,/,?,3.5%,/,/
Cc1ccc2nc(NCc3ccco3)c(C=NCc3ccco3)c(=O)n2c1,/,8.2%,17.4%,/,/
Cc1cccc(C)c1NC(=O)[C@H](C)N,i,-0.8%[25.6 µM],-0.2%[25.7 µM],i,2.04e-08
CCOC(=O)c1cccc(-n2c(C)nc3ccccc3c2=O)c1,i,5.8%[11.4 µM],-0.5%,i,1e-09
Cc1cc(C)cc(OCC(=O)NCc2nc(-c3ccccc3)no2)c1,i,?,-0.7%,i,1e-09
O=C(COC(=O)C1CCN(C(=O)c2ccc(Cl)cc2)CC1)c1ccco1,i,9.0%,1.0%,i,2.53e-08
CCC(C)(C)N1CC(=O)N(Cc2ccccc2)C(c2ccc(OC)cc2)C1=O (configuration not stated),i,-1.3%,1.8%,i,1e-09
Cc1nc2ccccc2c2oc(C(=O)NCCN3CCN(C)CC3)cc12,/,1.2%,1.4%,/,/
COc1ccc(-c2noc(CCCc3ccccc3)n2)cc1OC,i,27.1%,0.9%,i,1e-09
O=C(NC1CCCCC1)C(c1ccc(Cl)cc1)N(C(=O)c1cnccn1)c1ccc2c(c1)OCO2 (configuration not stated),i,?,0.0%,i,6.4e-09
COC(c1ccccc1Br)C(C)/C=C/CCO (configuration not stated),/,-3.8%[11.4 µM],-0.7%[11.5 µM],/,/
Nc1ccc(O)c([N+](=O)[O-])c1,/,5.0%,-0.7%,/,/
CCOC(=O)N1CCN(C(=O)CS(=O)(=O)Cc2nc(-c3ccccc3C)oc2C)CC1,/,1.8%,3.8%,/,/

# (list continues)
SMILES,A488 autofl,TSHR ag,AID923,Resorufin autofl,A647 fluor
O=C(Nc1ccc(F)cc1)N(CCCN1CCOCC1)Cc1cc2cc3c(cc2[nH]c1=O)OCCO3,i,?,1.7%,i,2.7e-09
CS/C(=N\S(=O)(=O)c1cccs1)Nc1ccc(N2CCOCC2)cc1,i,22.3%,-1.9%,i,1e-09
CC(c1ccco1)N(C(=O)c1ccc(Cl)s1)c1ccccn1 (configuration not stated),i,?,-0.9%,i,1e-09
O=C(NC1CCCCC1)NC1CCN(S(=O)(=O)Cc2ccccc2)CC1,i,-18.0%,0.3%,i,4.43e-08
CC#C[C@@]1(O)CC[C@H]2[C@@H]3CCC4=CC(=O)CCC4=C3[C@H](c3ccc(N(C)C)cc3)C[C@]21C,i,-9.5%[25.6 µM],-2.7%[25.7 µM],i,4.36e-08
Cc1cc(=O)oc2cc(OCC(=O)N3CCCc4ccccc43)ccc12,i,19.6%,-0.4%,i,1.91e-08
Cn1c(=O)c2c(-c3ccccc3)n(-n3cnnc3)cc2n(C)c1=O,i,-80.5%[inhibitor],-2.0%,i,1.3e-08
CC1(C(=O)NCc2cc(F)cc(C(F)(F)F)c2)C=CC2(CCCCC2)N1C(=O)c1ccccc1 (configuration not stated),/,15.2%,-2.8%,/,/
CN(C)CCN1C(=O)c2oc3ccccc3c(=O)c2C1c1cccc(Br)c1 (configuration not stated),i,1.5%,-0.8%,i,3.78e-08
Cc1cc(Cl)c(S(=O)(=O)Nc2ccon2)cc1OCC(=O)NC1CCCCC1,i,-0.3%,-1.0%,i,2.2e-08
CCCS(=O)(=O)c1nc(S(=O)(=O)c2ccc(C)cc2)c(N2CCCC2)s1,/,15.6%[11.4 µM],1.1%,/,/
COc1ccc(N2CCN(CCCNC(=O)C3CCCN(S(=O)(=O)c4cnc[nH]4)C3)CC2)cc1 (configuration not stated),/,?,0.5%,/,/
CCOC(=O)Cn1c(S(=O)(=O)Cc2ccccc2)nc2ccccc21,/,9.5%,-0.7%,/,/
CN1CCN(/C=N/c2sc3c(c2C#N)CCCCC3)CC1,i,/,/,i,2.9e-09
CCOc1ccc(CCNC(=O)C2CC(=O)N(C3CCCC3)C2)cc1OCC (configuration not stated),i,1.3%,0.7%,i,1e-09
COc1ccc(-n2nnnc2SCC(=O)c2cccc(OC)c2)cc1,i,?,3.8%,i,1.7e-08
CN(C)c1ccc(N=Cc2nc(-c3ccccc3)oc2O)cc1,?,?,5.1%,i,1e-09
COC(=O)c1ccccc1NC(=O)N1CCCC1,i,9.0%,0.5%,i,3.12e-08
O=C(NC1CCCc2ccccc21)c1ccc(CNc2c(N3CCOCC3)c(=O)c2=O)cc1 (configuration not stated),/,-7.6%,0.5%,/,/
